# Source: PubChem BioAssay (SRMLSC)
# H5N1 CPE: MDCK cell protection from H5N1 avian flu. cytopathic effect, luminescence, 72 h; stronger effect = higher value; no value below 0 was filed and about half of the inactive calls have no number; reference of the scale not given here. inhibition, % at 50 µM. actives 0.07% (n = 96,000); in the data active means inhibition above about 25%
# * = called active by the depositor; i = inactive. These rows are one share of the data; rates above refer to the full screens.
# Sample of the layout (4 entries):
SMILES	H5N1 CPE
COc1ccc(-n2c(Cc3cccn3C)nnc2SCC(N)=O)cc1	0.3
O=C1NC(Cc2c[nH]c3ccccc23)C(=O)N1CCOc1ccc(F)cc1 (configuration not stated)	i
CCSc1ncnc2c1sc1nc(-c3ccco3)c3c(c12)CC(C)(C)OC3	2.2
CS(=O)(=O)c1ccc2nc(NC(=O)CN3CCN(Cc4ccccc4)CC3)sc2c1	0.8

# The whole of this part, previewed entries included:
SMILES	H5N1 CPE
COc1ccc(-n2c(Cc3cccn3C)nnc2SCC(N)=O)cc1	0.3
O=C1NC(Cc2c[nH]c3ccccc23)C(=O)N1CCOc1ccc(F)cc1 (configuration not stated)	i
CCSc1ncnc2c1sc1nc(-c3ccco3)c3c(c12)CC(C)(C)OC3	2.2
CS(=O)(=O)c1ccc2nc(NC(=O)CN3CCN(Cc4ccccc4)CC3)sc2c1	0.8
Cc1ccc(S(=O)(=O)NC(=O)N2CCCC(C)(C)C2)cc1	0.3
O=C(Nc1nc2ccccc2n1CCOc1ccccc1)c1ccco1	0.9
O=C(O)/C=C\C(=O)Nc1ccccc1C#Cc1ccccc1	i
Cc1nn(-c2ccc(Cl)cc2)c2[nH]c(=O)c(CNCc3ccc4c(c3)OCO4)cc12	i
O=C(CCCCn1c(=S)[nH]c2ccsc2c1=O)NCc1ccco1	1.3
S=C(Nc1ccccc1)N1N=CCC1c1ccccc1 (configuration not stated)	1.1
CCC1(C)NC(=O)N(CC(=O)Nc2sc3c(c2C(N)=O)CCC3)C1=O (configuration not stated)	i
CCC(C)NC(=O)c1ccccc1NC(=O)CN(c1ccc(OC)cc1)S(C)(=O)=O (configuration not stated)	0.4

# A draw from above in order of number of heavy atoms, lowest first:
SMILES	H5N1 CPE
O=C(CCCCn1c(=S)[nH]c2ccsc2c1=O)NCc1ccco1	1.3
O=C(Nc1nc2ccccc2n1CCOc1ccccc1)c1ccco1	0.9
Cc1nn(-c2ccc(Cl)cc2)c2[nH]c(=O)c(CNCc3ccc4c(c3)OCO4)cc12	i

# Continuation:
SMILES	H5N1 CPE
O=C(/C=C/Nc1cccc(O)c1)c1ccccc1	i
O=C(O)[C@H](CO)Nc1ncnc2sc3c(c12)CCC3	i
CN(CC(=O)Nc1nc2ccc(F)cc2s1)S(=O)(=O)c1ccc(Cl)cc1	i
Cc1ccc(NC(=O)c2ccc(NS(=O)(=O)c3c(C)noc3C)cc2)cc1C	0.2
COc1ccccc1Nc1ncc(C(=O)N2CCC(C(N)=O)CC2)c2ccccc12	0.3
O=C(CCCCC(=O)NCc1cccs1)NCc1cccs1	i
COc1cc(NC(=O)c2ccc(Cl)cc2Cl)ccc1-c1cc2ccccc2oc1=O	i
O=C(NCc1ccc2c(c1)OCO2)C(=O)NC1CCCCC1	0.3
COc1ccc(CNC(=O)C(CCSC)NC(=O)c2ccco2)cc1 (configuration not stated)	0.2
COc1ccc(/C=N/NC(=O)CCc2ccccc2)cc1O	2.3
O=C(Nc1ccc(Cl)cn1)c1ccc2ccccc2n1	i
CCc1cc(=O)oc2cc(OC(C)=O)cc(OC(C)=O)c12	0.5

SMILES	H5N1 CPE
O=C(CN1c2cccc3cccc(c23)S1(=O)=O)NCc1ccc2c(c1)OCO2	i
O=C1CC(N2CCN(c3ccccc3)CC2)C(=O)N1c1ccc2c(c1)OCCO2 (configuration not stated)	i
Cc1ccc2c(c1)N(C(C)C(=O)NCCc1ccccc1)C(=O)CO2 (configuration not stated)	i
Cc1cc(C)nc(N2CCCC(C(=O)NCc3cccs3)C2)n1 (configuration not stated)	0.5
Cc1ccc(-c2ccc(=O)[nH]n2)cc1	i
CC1(C)CC(=O)C(C=NCC(N)=O)=C(O)C1	i
CNc1cnn(-c2ccc(C)cc2)c(=O)c1Cl	i
CC(CNC(=O)C(=O)NC(C)CCc1ccccc1)Cc1ccccc1 (configuration not stated)	i
O=C(COc1ccc(Cl)cc1)N1CCN(S(=O)(=O)c2ccccc2)CC1	1.5
CC(C)(C)NC(=O)CN1CCC(O)(c2ccccc2)CC1	0.7
CCc1nnc(NC(=O)CSc2nnc(C)n2-c2ccc(C)cc2)s1	3.8
COc1ccc(N(CC(=O)Nc2cccc(C)c2C)S(=O)(=O)c2c(C)n[nH]c2C)cc1	i

SMILES	H5N1 CPE
O=C(c1ccccc1Cl)N1CCc2ccccc2C1	0.4
COc1ccc(-c2c(C)oc3c(CN4CCCCC4C)c(O)ccc3c2=O)cc1OC (configuration not stated)	1.0
CCOC(=O)c1oc2nc(C)c3c(c2c1N)CC(C)(C)OC3	0.6
Cc1ccc(NC(=O)Cn2nc(C)c3ccccc3c2=O)cc1F	0.3
O=C(c1ccc(CS(=O)(=O)c2ccc(Br)cc2)o1)N1CCCCCC1	9.4
CCOC(=O)c1ccc(CNC(=O)CSc2nnnn2-c2ccc(Cl)cc2)o1	i
COC(=O)c1ccc(OC)cc1OCC(=O)N1CCN(c2ccc(F)cc2)CC1	0.3
O=C(Nc1ccc2c(c1)OCO2)c1cccs1	i
CCOC(=O)N1CCC(NC(=O)c2ccc3c(c2)N(C)CCS3)CC1	i
COc1ccccc1S(=O)(=O)n1cc(Cc2ccccc2)c(N)n1	i
Cc1[nH]nc(-c2ccc(OCc3cnn(-c4ccccc4)c3)c(C)c2O)c1Oc1ccccc1	0.1
COc1ccc(OC)c(NC(=S)N2CCN(c3ccccn3)CC2)c1	i

SMILES	H5N1 CPE
O=C(Nc1ncc(Cc2cccc(Cl)c2Cl)s1)c1ccc([N+](=O)[O-])cc1	i
CCCCOc1ccc(-c2c(C#N)c(N)nc(SCC(N)=O)c2C#N)cc1	i
Cn1c(N)c(C(=O)COC(=O)C2(c3ccccc3F)CCCC2)c(=O)n(C)c1=O	i
COc1cc(C(=O)Nc2ccc(Br)cc2C(=O)c2cc(OC)c(OC)c(OC)c2)cc(OC)c1OC	i
O=C(NCCO)c1cc2c(s1)CCC2	i
CCCC1(CCC)NC(=O)N(CC(=O)Nc2cccc(OC)c2)C1=O	0.1
CCOC(=O)c1cc(NC(=O)c2c(C)noc2C)cc(C(=O)OCC)c1	i
N#Cc1nc(-c2ccccc2Cl)oc1N1CCCCC1	3.8
COc1cccc(NC(=O)N2CCCC2C(=O)NC(C)C)c1 (configuration not stated)	i
Clc1ccccc1CNc1ncnc2nc[nH]c12	i
Cc1noc2ncnc(Sc3ccc(Cl)cc3)c12	0.1
O=C(CSc1ncccn1)NN=C1CCCCCCC1	0.2

SMILES	H5N1 CPE
COC(=O)C1=C(C)N(Cc2ccco2)C(=O)C1	0.1
Cc1ccc(C(C(=O)NC2CCCC2)N(Cc2ccc(F)cc2)C(=O)c2csnn2)o1 (configuration not stated)	i
Cc1ccc2c(c1)c1c(n2CC(O)Cn2nc(C)c(Br)c2C)C(=O)CCC1 (configuration not stated)	0.4
Cc1ccc(N(C(=O)Cn2nnc3ccccc32)C(C(=O)NCc2ccco2)c2cccnc2)cc1 (configuration not stated)	i
CCOC(=O)c1cnc2c(C)cccc2c1NCc1ccco1	0.9
CCCCN1C(=O)C(O)=C(C(C)=O)C1c1ccc(OC)cc1OC (configuration not stated)	1.7
O=C(Cn1nnc2ccccc21)N/N=C\C=C\c1ccccc1	2.0
CCn1nnc(NC(=O)c2c(OC)cccc2OC)n1	0.3
O=C(c1cccc(S(=O)(=O)NCc2ccccc2)c1)N1CCN(Cc2ccccc2)CC1	i
C[C@H](N)c1nnc(SCC(=O)N(C)C)o1	i
CCOC(=O)C1C(=O)NC(C)C1c1ccccc1 (configuration not stated)	i
COc1ccc(Cl)cc1-c1n[nH]c(=S)n1C1CCCCC1	i

# Quoted at random: six compounds from above.
SMILES	H5N1 CPE
CCn1nnc(NC(=O)c2c(OC)cccc2OC)n1	0.3
O=C(Cn1nnc2ccccc21)N/N=C\C=C\c1ccccc1	2.0
O=C(c1cccc(S(=O)(=O)NCc2ccccc2)c1)N1CCN(Cc2ccccc2)CC1	i
Cc1ccc(C(C(=O)NC2CCCC2)N(Cc2ccc(F)cc2)C(=O)c2csnn2)o1 (configuration not stated)	i
CCOC(=O)C1C(=O)NC(C)C1c1ccccc1 (configuration not stated)	i
Cc1ccc(N(C(=O)Cn2nnc3ccccc32)C(C(=O)NCc2ccco2)c2cccnc2)cc1 (configuration not stated)	i

# Remaining list, next part
SMILES	H5N1 CPE
Cc1cccc(NC(=S)NC(NC(=O)OCc2ccccc2)C(Cl)(Cl)Cl)c1 (configuration not stated)	i
C=CCOc1ccc2c(c1)C(=NO)c1cc(OCC=C)ccc1-2	i
O=C(CN1C(=O)c2ccccc2S1(=O)=O)NCc1ccccc1Cl	0.1
CCCCCSc1nnc(-c2cc(Br)ccc2N)c(=O)[nH]1	0.8
COC(=O)CN(C(=S)Nc1ccccc1)C1CC(=O)N(c2ccc(OC)cc2)C1=O (configuration not stated)	i
FC(F)(F)c1cc(-c2cccs2)nc(-n2cc(Cl)cn2)n1	i
CC1CCN(c2oc(-c3ccccc3F)nc2C#N)CC1	i
CCCCNC(=O)CN1C(=O)C(CC)Oc2ccc(Cl)cc21 (configuration not stated)	i
COC(=O)c1c(NC(=O)c2ccc(Br)s2)sc2c1CCC2	i
COc1ccc(Cl)cc1NC(=O)NCCCl	2.2
CC1CN(S(=O)(=O)c2ccc(NC(=O)c3cc(-c4ccccc4O)n[nH]3)cc2)CC(C)O1 (configuration not stated)	1.2
Cn1c(NC(=O)CC(C)(C)C)cc(=O)n(C)c1=O	0.6

SMILES	H5N1 CPE
C/C(Nc1ccccc1)=C(/C#N)C(N)=O	0.8
O=C1NCCNC1(c1c[nH]c2ccccc12)C(F)(F)F (configuration not stated)	0.3
CCCOC(=O)C1[C@H]2C(=O)N(CC3CCCO3)C[C@]23C=C[C@H]1O3 (some centres not stated)	i
O=C(Nc1ncccc1O)c1cccc(S(=O)(=O)N2CCc3ccccc32)c1	0.6
CCN(CC)CCCN1C(=O)C(=O)/C(=C(/O)c2ccc(C)cc2)C1c1ccccn1 (configuration not stated)	1.1
Cc1ccc(C(=O)Nc2ccc(F)cc2F)o1	i
CC(C)c1cc(C(F)(F)F)n2nc(C(=O)O)cc2n1	0.8
CN(CC(=O)NC1CCCCCC1)S(=O)(=O)c1ccc2c(c1)n(C)c(=O)c(=O)n2C	1.0
CC(Sc1sc(=S)sc1SC(C)C(=O)O)C(=O)O (configuration not stated)	i
CCC1(C(=O)OC)NC(c2ccccc2OC)C2C(=O)N(C)C(=O)C21 (configuration not stated)	i
COc1ccc(C2C(C(=O)c3sc(C)nc3C)=C(O)C(=O)N2CCN(C)C)cc1 (configuration not stated)	i
CCOC(=O)c1ccc(NC(=O)C(=O)NCc2ccncc2)cc1	0.2

SMILES	H5N1 CPE
CCOc1ccc(NC(=O)CSc2nnc(-c3ccncc3)n2CC2CCCO2)cc1 (configuration not stated)	0.3
CCN(CC)CCN1C(=O)C(O)=C(C(C)=O)C1c1ccc(OC)c(OC)c1 (configuration not stated)	i
O=C(Nc1ccc(S(=O)(=O)NCCc2ccccc2)cc1)c1ccc(Br)o1	i
CCCCCCC(N)CC(=O)O (configuration not stated)	0.2
CC(Oc1ccc(-c2ccccc2)c(F)c1)c1ccn(S(=O)(=O)c2ccc(Cl)cc2)n1 (configuration not stated)	2.8
O=C(Nc1cccc(S(=O)(=O)N2CCOCC2)c1)c1cc2c(s1)CCC2	i
NC(=O)/C=C\C(=O)Nc1cccc(C(F)(F)F)c1	0.7
Clc1ccc(OCc2nn3c(C4CCCCC4)nnc3s2)cc1	i
COc1ccc(S(=O)(=O)N(CCc2ccccc2)CC(=O)NCCCO)cc1	1.6
CCOc1ccc(-c2nc(C#N)c(NCc3ccc4c(c3)OCO4)o2)cc1	i
Cc1cccc(C(=O)c2cnc3ccccc3c2-c2ccccc2)c1	i
O=c1ccc2cc3c([nH]c4ccc(Br)cc43)oc-2c1O	i

SMILES	H5N1 CPE
Cc1ccc(S(=O)(=O)N2CCC(C(=O)N3CCC[C@H]3C(=O)NCc3ccco3)CC2)cc1	i
O=C(CSc1nccc(=O)[nH]1)Nc1ccc(Br)c(Cl)c1	i
CCCC(=O)Nc1nnc(Sc2ccc(N(C)C)cc2)s1	0.0
O=C(Nc1ccc2c(c1)OCO2)N1CCN(C/C=C/c2ccccc2)CC1	0.9
CC(=O)C1=C(Nc2ccc(C)cc2)CC(C)(O)C(C(C)=O)C1c1ccco1 (configuration not stated)	0.1
O=C(O)CC(c1cccc(Cl)c1)n1cccc1 (configuration not stated)	i
O=C(CSc1nc2ccccc2nc1SCC(=O)N1CCOCC1)N1CCOCC1	2.3
CCOc1cccc(CNn2cnnc2)c1OCc1ccccc1Cl	0.4
O=C(C1CC1)N1CCN=C1SCc1ccccc1Cl	0.8
CCCCOn1c(C)c(C(=O)OCC)c2c3no[n+]([O-])c3ccc21	0.5
COc1ccc(OCCCC(=O)NCc2ccco2)cc1	i
CS(=O)(=O)N(CC(=O)NCc1ccco1)c1ccc(Cl)c(C(F)(F)F)c1	i

SMILES	H5N1 CPE
CCn1c(SCC(=O)N2CCCC2)nc2c(c1=O)SC(C)C2 (configuration not stated)	1.8
c1ccc2c(c1)CNc1ccccc1O2	i
CCOC(=O)N1CCN(CC(=O)c2ccc3c(c2)CCN3)CC1	i
COc1cc(C2C(C(=O)Nc3ccc(F)cc3)=C(C)Nc3nc(CCCO)nn32)cc(OC)c1OC (configuration not stated)	1.4
COc1ccc(-c2nnc3ccc(SCC(=O)NCC4CCCO4)nn23)cc1 (configuration not stated)	0.7
O=C(Nc1nc2c(ccc3ccccc32)s1)c1ccco1	i
O=C(Nc1ccn(Cc2ccccc2F)n1)c1ccc(COc2cc(Cl)ccc2Cl)o1	i
Cc1ccc(S(=O)(=O)N2CCCC2C(=O)NC2=NCCS2)cc1 (configuration not stated)	0.3
COc1ccc(OC)c(S(=O)(=O)N2CCCCCC2)c1	1.7
COc1cccc(/C=c2\sc3nc(-c4cccs4)nn3c2=O)c1OC	i
COc1ccc(C)cc1NS(=O)(=O)c1cc(C)ccc1C	i
COc1ccc(C2CCCN2C(=O)Nc2ccc(C)c(C)c2)cc1OC (configuration not stated)	i
Cc1cccnc1NC(=S)NC(=O)c1cccs1	0.2
Cc1noc(C)c1C(=O)OCC(=O)Nc1ccccc1Oc1ccccc1	0.1
[O-][n+]1onc2c1CCc1nnc(-c3ccccc3)cc1-2	0.9
